Screening data (PubChem BioAssay)
VDR inhibitor: Inhibitors of the vitamin D receptor (VDR): qHTS. Vitamin D3 receptor (Homo sapiens), P11473. VDR-SRC2-3 peptide fluorescence polarization, 2 h. Potency, µM, without a hit: max response, negative = inhibition, hits mostly inhibitors. 0.93% of 400,000 active. AID 504847, 2011; active means well fitted inhibition curve with a large enough effect; inconclusive means small, poorly fitted or top-dose-only effect, or another doubt; inactive means no such curve, though single readings can be large or run the other way; further: series mostly up to about 120 µM
Target sequence (P11473 whole entry, looked up): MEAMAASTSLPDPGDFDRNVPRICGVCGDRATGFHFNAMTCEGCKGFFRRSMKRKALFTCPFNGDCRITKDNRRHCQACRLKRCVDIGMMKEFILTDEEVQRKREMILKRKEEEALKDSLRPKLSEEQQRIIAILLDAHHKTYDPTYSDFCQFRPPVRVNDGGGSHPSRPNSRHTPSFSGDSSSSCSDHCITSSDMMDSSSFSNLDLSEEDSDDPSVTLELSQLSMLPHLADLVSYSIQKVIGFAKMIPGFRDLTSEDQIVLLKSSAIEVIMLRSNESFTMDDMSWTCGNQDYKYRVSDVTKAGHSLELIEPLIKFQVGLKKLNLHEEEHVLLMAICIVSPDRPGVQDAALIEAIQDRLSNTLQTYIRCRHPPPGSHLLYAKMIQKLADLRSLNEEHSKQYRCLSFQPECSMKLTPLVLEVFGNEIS
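Compounds are added to VDR with labelled SRC2-3 coactivator peptide and held 2 h at room temperature. Inhibition of the VDR–peptide interaction is then read as a change in fluorescence polarization.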
The depositor's hits bear a star; ? = inconclusive; & = joins results of further samples; ! = a repeat was not active. On the % scale 0 is the no-effect control and ±100 the full control effect; potency means the concentration at half of the fitted maximal effect. Not all compounds are listed; the hit share may differ from the screen's.

SMILES	VDR inhibitor
COc1ccc(CN2C(=O)C(O)(CC(=O)c3c(C)n[nH]c3C)c3ccccc32)cc1OC (configuration not stated)	-13%
COc1ccc(OC)c(Nc2ncnc3sccc23)c1	0%
O=C(NCc1ccc(F)cc1)C1CCCN(S(=O)(=O)c2cccc3nsnc23)C1 (configuration not stated)	5%
CC1CCCN(C(=O)CSCC(=O)Nc2nc(-c3cccs3)cs2)C1 (configuration not stated)	-7%
O=C(CSc1nc2c(oc3ccccc32)c(=O)n1-c1ccccc1)Nc1ccccc1F	-9%
COCCNC(=O)NC(=O)COC(=O)c1ccc2[nH]c3c(c2c1)CCCC3	-6%
CCCCNC(=S)N(Cc1c(C)noc1C)c1ccccc1	-6%
CSc1nc(N)c2cn[nH]c2n1	-14%
CC(C)(C)SCCNS(=O)(=O)c1ccc(C#N)cc1	-12%
O=C(Nc1cccc(C(=O)N2CCN(c3ccccc3)CC2)c1)c1nsc2ccccc12	3%
O=C(Cn1c(=O)oc2ccccc21)N1CCN(c2ccccc2)CC1	-4%
Cc1cc(C)c(-c2csc(NC(=O)CCCc3nc4ccccc4c(=O)[nH]3)n2)c(C)c1	-1%
CC(CC(=O)O)C(=O)c1ccc(Cl)c([N+](=O)[O-])c1 (configuration not stated)	7%
CC(=O)Nc1ccc(S(=O)(=O)NNC(=O)COc2ccc(C(C)(C)C)cc2)cc1	-8%
O=C(Nc1nc(-c2ccc3c(c2)OCO3)cs1)C1COc2ccccc2O1 (configuration not stated)	-7%
COc1ccc(S(=O)(=O)N[C@@H](CC(C)C)C(=O)O)cc1	-8%
Cc1ccc(NC(=O)CSc2nc(-c3ccc(C(C)(C)C)cc3)nc3cc(=O)[nH]n23)cc1C	16%
COc1cc(C(=O)NCc2ccc3c(c2)cc(C)n3C)cc(OC)c1OC	7%
CCCn1c(SCc2ccc(C(=O)OC)o2)nc2ccccc2c1=O	0%
CCN(Cc1ccccc1)Cc1c(O)ccc2c(=O)c(-c3ccccc3)c(C(F)(F)F)oc12	20%
Cc1onc(-c2ccccc2Cl)c1C(=O)N1CC(C)OC(C)C1 (configuration not stated)	?
O=C(COC(=O)c1ccccc1)NCc1ccco1	-22%
CSc1nc(=O)[nH]c2nc[nH]c12	-18%
COc1ccccc1C(=O)NCC(C)(C)CN=C1NS(=O)(=O)c2ccccc21	10%
O=c1nc2ccccc2c2n1CC(CN1CCN(c3ccccc3)CC1)N2 (configuration not stated)	10%
COc1ccc(Cl)cc1NC(=O)CC(=O)Nc1cc(Cl)ccc1OC	-2%
Cc1ccccc1NS(=O)(=O)c1cc(OCC(N)=O)c(C)cc1Cl	1%
O=C(NC1CC(=O)c2sccc21)c1ccc(Cl)cc1Cl (configuration not stated)	6%
CCCCCCCCCCCCC/C=C\[C@@H](O)[C@H](CO)NC(C)=O	10%
CCO[C@@H]1OC(C(=O)NCc2ccccc2)=C[C@H](c2ccccc2)[C@H]1CCCO	-20%
Cc1cccc(NC(=O)Cn2c(=O)oc3ccccc32)c1	-3%
COc1ccc(N2CC(C(=O)N[C@H](C(=O)NC(C)c3ccccc3)C(C)C)CC2=O)cc1 (some centres not stated)	1%
CCCCNc1ccc(-c2nc(-c3ccccc3)no2)cc1[N+](=O)[O-]	16%
O=C(Cn1c(=O)oc2ccccc21)N1CCCCC1	11%
COC(=O)c1ccc([C@H]2C=C(C(=O)O)O[C@@H](OCc3ccc(CO)cc3)C2)cc1	-8%
COc1ccc2nc(SCC(=O)NC3(C#N)CCCCC3)[nH]c2c1	-7%
O=C(NCCc1ccccc1)C1CCCN(C(=O)NC2CCCCC2)C1 (configuration not stated)	7%
CCOc1cc(/C=C(/C#N)c2ccc(F)cc2)ccc1OCc1ccc(C(=O)O)o1	-10%
O=C(NC(=O)N1CCCCCC1)c1ccccc1	12%
COc1ccc(N2C(=O)CCC(C(=O)O)C2c2ccc(OC)c(OC)c2)cc1 (configuration not stated)	15%

2 records drawn at random from the list so far:
SMILES	VDR inhibitor
O=C(NC(=O)N1CCCCCC1)c1ccccc1	12%
CCCCCCCCCCCCC/C=C\[C@@H](O)[C@H](CO)NC(C)=O	10%

Later entries
SMILES	VDR inhibitor
Cc1cc(CNC(=O)C2(C(F)(F)F)CC(CCCO)CCCO2)nn1C (configuration not stated)	9%&-9%
O=C(NCCSC1CCCCC1)c1ccccc1	-12%
COc1ccccc1OCC(=O)N1CCNC1=O	-13%
CC1CN(CN2C(=O)c3ccccc3C2=O)CC(C)O1 (configuration not stated)	-8%
O=C(O)c1ccc(NC(CSCc2cccc(F)c2)C(=O)O)c([N+](=O)[O-])c1 (configuration not stated)	-1%
CCN(CC)CCNC(=S)Nc1ccc2nc3n(c(=O)c2c1)CCCCC3	-7%
Cc1cc(C)cc(NC(=O)C2(c3ccccc3)CC2(Cl)Cl)c1 (configuration not stated)	-9%
CCCN(CCC)S(=O)(=O)c1ccc(N2CCCC2=O)c([N+](=O)[O-])c1	-10%
O=S(=O)(c1ccccc1)c1nnn2c1nc(NCc1cccs1)c1sccc12	9%
CCCn1c(SCC(=O)/C(C#N)=C(\C)N)n[nH]c1=O	-4%
O=C(CS(=O)(=O)c1ccccc1)NCc1ccco1	-1%
CSCCC(NC(=O)c1cncc(Br)c1)C(=O)O (configuration not stated)	-18%
CN(CCC#N)C(=O)COC(=O)c1ccccc1C(=O)c1ccc(Cl)c([N+](=O)[O-])c1	3%
c1ccc(-c2onc(-c3ccco3)c2-c2ccc3[nH]ccc3c2)cc1	10%
CCOC(=O)C1CCCN(C(=O)c2cc(-c3ccccc3)on2)C1 (configuration not stated)	-3%
O=C(N/N=C/c1cccc(O)c1)c1ccc(COc2cccc3cccnc23)cc1	-14%
COc1ccc(N2CCN(C(=O)CN(c3cccc(OC)c3)S(=O)(=O)c3ccccc3)CC2)cc1	-3%
COCC1CCN(Cc2cn[nH]c2-c2cc3ccccc3o2)C1 (configuration not stated)	8%
CCOC(=O)N1CCC(NC(=O)c2ccc(CS(=O)(=O)c3ccc(OC)cc3)o2)CC1	4%
CC(=O)Nc1ccccc1C(=O)C(=O)Nc1ccc(C(=O)NCC2CCCO2)cc1 (configuration not stated)	-4%
COc1ccc(Nc2nn(-c3ccc(OC(F)(F)F)cc3)nc2C(C)=O)cc1	11%
CCc1cccc(CC)c1NC(=O)CN1CCN(S(=O)(=O)c2ccccc2)CC1	-11%
CCOc1ccc(NC(=O)CC2C(=O)N(c3cccc(C)c3)C(=O)N2Cc2ccco2)cc1 (configuration not stated)	12%
CC1=C(C(=O)OC(C)C)C(c2cccc([N+](=O)[O-])c2)n2c(cc(=O)[nH]c2=S)N1 (configuration not stated)	-23%
S=c1[nH]nc(-c2cccnc2)n1/N=C/c1cccs1	12%
CNC[C@H]1Oc2ccc(NC(=O)Nc3ccccc3)cc2CC(=O)N([C@H](C)CO)C[C@H]1C	-27%
CC(CCCC(C)(C)O)NCCO (configuration not stated)	17%
O=C(CCN1C(=O)/C(=C\c2ccccc2Cl)SC1=S)Nc1cccnc1	-27%
Cc1csc(NC(=O)c2c(-c3ccccc3)noc2C)n1	-10%
COc1ccc(C)cc1-n1nnnc1SCC(=O)NC1CCS(=O)(=O)C1 (configuration not stated)	11%
Cc1ccccc1NC(=O)CC1(c2ccc(N(C)C)cc2)C(=O)c2ccccc2C1=O	7%
CCC(=O)Nc1nnc(S(=O)(=O)N2CCCc3ccccc32)s1	3%
CC(=O)c1cccc(N(CC(=O)NC2CCCCC2)C(=O)Cn2nnc(-c3ccccc3)n2)c1	-6%
CNS(=O)(=O)c1ccc(N2CCCC2=O)c([N+](=O)[O-])c1	-5%
O=C(Cc1ccccc1F)Nc1nc(-c2ccc(F)cc2)cs1	-3%
CCS(=O)(=O)N1CCC(NC(=O)c2cc(OC)cc(OC)c2)CC1	6%
O=C(CN1C(=O)CC(c2ccco2)Sc2ccccc21)Nc1ccc(Br)cc1 (configuration not stated)	-3%
COC(=O)C1CCN(c2ccc(C(N)=O)cc2[N+](=O)[O-])CC1	-1%
CC(C)NC(=O)Nc1ccc2c(c1)C(=O)N([C@@H](C)CO)C[C@@H](C)[C@@H](CN(C)S(=O)(=O)c1ccc(F)cc1)O2	-14%
CCc1ccc(NCc2cc3ccc(OC)cc3n(CC(=O)Nc3ccccc3OC)c2=O)cc1	1%
COc1cc(C(=O)N(CCc2ccccc2)C2CC3CCC(C2)N3C)cc(OC)c1OC (configuration not stated)	16%
CC(C)c1onc(C(=O)NCc2ccccn2)c1[N+](=O)[O-]	-7%
CC[C@@H](CC1CCCCC1)C(=O)N(Cc1ccccc1)c1ccccc1	-10%
CCOc1ccc(NC(=O)C2CSC(c3ccncc3)=N2)cc1 (configuration not stated)	?
Cc1nn(-c2ccccc2)c(C)c1NC(=O)COC(=O)c1ccc(S(=O)(=O)C(F)F)cc1	-5%
O=C(Nc1ccc(C(O)(C(F)(F)F)C(F)(F)F)cc1)c1ccc(Cl)c([N+](=O)[O-])c1	-10%
O=C(CSc1ccccc1)NCc1ccc2c(c1)CCN2C(=O)c1ccccc1	4%
Cc1ccc(OCC(=O)Sc2ccc(C)cc2)cc1	45µM*
Nc1ccc(OCc2ccco2)cc1	2%
COc1cc(-c2nc3n(n2)C(c2cccc(OC)c2OC)C2=C(CCCC2=O)N3)cc(OC)c1OC (configuration not stated)	-1%
CCN(CC)c1ccc2c(c1)OC(N)=C(C#N)C2c1cccnc1 (configuration not stated)	-20%
CCOc1ccc(Cc2c(Cl)nc(SC)nc2N(C)C)cc1	13%
O=C(CN1CCN(S(=O)(=O)c2cccc(Cl)c2)CC1)NCC1(N2CCOCC2)CCCCC1	-2%
Cc1cccc(OCCSc2nc3ccccc3n2CC(=O)N2CCOCC2)c1	6%
O=C1CN(C(=O)N[C@@H](Cc2ccccc2)C(=O)N[C@@H](Cc2ccccc2)C(=O)O)c2ccccc2N1	-11%
O=C(CSc1ncnc2sccc12)N1CCN(C(=O)c2cccs2)CC1	-4%
O=C(Nc1ccccc1C(F)(F)F)N1CCOc2ccc(Cl)cc21	10%
Cc1ccc(C2c3c(oc4ccccc4c3=O)C(=O)N2c2nnc(C)s2)cc1 (configuration not stated)	9%
Cn1c(=O)n(C)c(=O)n(CC(=O)N2CCCCC2)c1=O	-4%
O=[N+]([O-])c1cc(CN2CCCC2)ccc1Sc1ccc(Cl)cc1	-4%

Later entries:
SMILES	VDR inhibitor
CS(=O)(=O)N1CCN(C(=O)c2cc(-c3cccnc3)nc3ccc(Cl)cc23)CC1	25%
COc1ccc(-n2cnc3cc(NCc4ccccn4)ccc32)cc1	-11%
Cc1ccc2cc(C#N)c(N3CCCN(C(=O)C4CCCO4)CC3)nc2c1 (configuration not stated)	-11%
CCN(C(=O)Cc1c(C(=O)O)c(C)cn1C)c1cccc(Cl)c1	3%
CC(OC(=O)c1cnc2ccccc2n1)c1ccccc1Cl (configuration not stated)	-15%
COc1ccccc1C(=O)N/C(=C/c1cccc([N+](=O)[O-])c1)C(=O)Nc1cccc(C(=O)O)c1	?
CS(=O)(=O)c1cccc(C(=O)NC(c2ccccc2)c2ccccc2)c1	2%
NC(=O)N/N=C/c1coc2ccc3ccccc3c2c1=O	-1%
COCCn1c(SCC(=O)N2CCCC2)nnc1C(C)C	-4%
O=C1NC(=O)C(c2ccccc2[N+](=O)[O-])=C1Nc1ccc(O)c(Cl)c1	45µM*!
Cc1ccc(-c2cc(NC(=O)c3ccccc3Cl)on2)cc1	5%
Cc1nnsc1C(=O)NC(C)c1ccccc1 (configuration not stated)	17%
Cc1c(NC(=O)CSc2nnc3sc4ccccc4n23)c(=O)n(-c2ccccc2)n1C	-10%
CCc1nc2sc3c(c2c(=S)[nH]1)CC(C)(C)OC3	0%
Cc1nc(SCC(=O)Nc2c(C)n(C)n(-c3ccccc3)c2=O)[nH]c(=O)c1C	15%
CC(=O)c1cc(F)c(N2CCCCCC2)cc1C	17%
O=C(CSc1nncn1-c1ccccc1)NC1CCCC1	-2%
COc1cc(C2Nc3ccc4ncccc4c3C3=C2C(=O)CCC3)ccc1O (configuration not stated)	0%
COCCN(C(=O)C1CCCO1)c1c(N)n(CC(C)C)c(=O)[nH]c1=O (configuration not stated)	13%
CCCn1c(=O)c2ccccc2n2c(SCC(=O)c3ccccc3)nnc12	13%
Cc1ccc(S(=O)(=O)NCC(=O)OCC(=O)N(C)C2CCCCC2)cc1	-4%

Molecules above with fluorine, in the order listed:
SMILES	VDR inhibitor
O=C(NCc1ccc(F)cc1)C1CCCN(S(=O)(=O)c2cccc3nsnc23)C1 (configuration not stated)	5%
O=C(CSc1nc2c(oc3ccccc32)c(=O)n1-c1ccccc1)Nc1ccccc1F	-9%
CCN(Cc1ccccc1)Cc1c(O)ccc2c(=O)c(-c3ccccc3)c(C(F)(F)F)oc12	20%
CCOc1cc(/C=C(/C#N)c2ccc(F)cc2)ccc1OCc1ccc(C(=O)O)o1	-10%
Cc1cc(CNC(=O)C2(C(F)(F)F)CC(CCCO)CCCO2)nn1C (configuration not stated)	9%&-9%
O=C(O)c1ccc(NC(CSCc2cccc(F)c2)C(=O)O)c([N+](=O)[O-])c1 (configuration not stated)	-1%
COc1ccc(Nc2nn(-c3ccc(OC(F)(F)F)cc3)nc2C(C)=O)cc1	11%
O=C(Cc1ccccc1F)Nc1nc(-c2ccc(F)cc2)cs1	-3%
CC(C)NC(=O)Nc1ccc2c(c1)C(=O)N([C@@H](C)CO)C[C@@H](C)[C@@H](CN(C)S(=O)(=O)c1ccc(F)cc1)O2	-14%
Cc1nn(-c2ccccc2)c(C)c1NC(=O)COC(=O)c1ccc(S(=O)(=O)C(F)F)cc1	-5%
O=C(Nc1ccc(C(O)(C(F)(F)F)C(F)(F)F)cc1)c1ccc(Cl)c([N+](=O)[O-])c1	-10%
O=C(Nc1ccccc1C(F)(F)F)N1CCOc2ccc(Cl)cc21	10%
CC(=O)c1cc(F)c(N2CCCCCC2)cc1C	17%
